MT1-MMP act inh: inhibitors of human MT1-MMP activation; HT1080 RFP-PRO-GFP cells, GFP/RFP ratio fluorescence, overnight; percent of plate control window, DMSO zero; GFP/RFP ratio change, % at 20 µM; 360,000 compounds, 0.061% hits; AID 651647;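 active = GFP/RFP ratio change of at least 30% with cell ATP level not reduced by more than half and red fluorescence within 50% of control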; note: strong numbers were not always called active
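Read-out: GFP/RFP fluorescence ratio; Test system: RFP-PRO-GFP reporter HT1080 cells; Compound dosing: single-point 20 µM compound, 1% DMSO; Times: overnight compound exposure at 37 °C.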
Rce1 inh: yeast Ras-converting enzyme inhibition | AID 2563 | calls only | yeast membranes, quenched prenylated peptide cleavage fluorescence | 290,000 compounds, 0.27% hits;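 active = fall in fluorescence gain of 50% or more versus controls, with final raw signal at or below 3038400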;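 note: plate controls were neutral control wells for no effect and wells lacking membranes for full effect; tested at 10 µM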
Target sequence (Q03530 whole entry, looked up): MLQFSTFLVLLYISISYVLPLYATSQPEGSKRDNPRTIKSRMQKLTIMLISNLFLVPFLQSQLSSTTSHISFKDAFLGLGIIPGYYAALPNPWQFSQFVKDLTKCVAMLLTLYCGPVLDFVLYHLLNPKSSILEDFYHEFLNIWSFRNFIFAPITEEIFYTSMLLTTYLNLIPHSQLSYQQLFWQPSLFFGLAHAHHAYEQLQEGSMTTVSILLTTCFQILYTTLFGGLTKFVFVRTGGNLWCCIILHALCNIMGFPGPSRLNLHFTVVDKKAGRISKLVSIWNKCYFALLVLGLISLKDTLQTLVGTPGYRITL
HIV Env fusion: blocks HIV Env-driven cell-cell fusion; inhibition, % at 12.3 µM; HeLa-JRFL Env/CEM21 cell fusion, luciferase; 360,000 compounds, 1.1% hits;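 active = mean replicate inhibition score of at least 50 and every replicate individually at or above 50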;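 note: 0% = plate neutral controls and 100% = maraviroc near 300 nM; one replicate is shown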
CSC inhib: blocks cancer stem cells. cancer stem cell-like cells viability, luminescence. inhibition, % at 7.5 µM. 300,000 compounds, 1.1% hits. AID 2717;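 active = mean at 75% or more and at least half the replicates too; tested in HMLE shEcad cells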;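 note: 0% = median of negative and 100% = median of positive control wells; the first replicate is given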
PABP FP inh: PABP-poly(A) binding inhibition; P11940; PABP-poly(A) RNA binding, fluorescence polarization; inhibition, % at 35 µM; 290,000 compounds, 1% hits; AID 2014;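 active = 50% or more with normal probe brightness, or confirmed in later tests; about a fifth of its hits are not listed in these tables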;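 note: calls also rest on retests at 20 µM and on dose response follow-up; controls were probe without protein and protein plus probe with vehicle; some compounds called inactive have numbers as strong as hits; many hits fall short of the cut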
UUG fidelity: yeast start codon fidelity modulation; S. cerevisiae UUG-firefly luciferase reporter, luminescence/redox ratio; activity score, % at 18.7 µM; 350,000 compounds, 0.13% hits;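 active = replicate mean at a twofold rise or more, about +100% in these data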;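 note: firefly luciferase made from a UUG start codon reports start codon fidelity; reporter light over untreated wells divided by growth signal over untreated wells; some hits fall short of that in this replicate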
eIF4H FP inh: inhibitors of RNA binding by human eIF4H | eIF4H fluorescence polarization binding assay | 290,000 compounds, 0.94% hits | AID 2012 | inhibition, % at 35 µM | Q15056;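 active = 50% or more with normal probe brightness, or confirmed in later tests; about a fifth of its hits are not listed in these tables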;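 note: calls also rest on retests at 20 µM and on dose response follow-up; 0% = protein and probe with vehicle and 100% = probe without protein; strong numbers were not always called active; many hits fall short of the cut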
MT1-MMP act inh RFP: recorded beside MT1-MMP act inh, whose call it bears; RFP signal change, %; measured here: RFP expression control read;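 0 = vehicle wells; hits needed this value within 50% of zero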
* hit, by the source's call; i = inactive; · = no result given. This is a subset; the hit share may differ from the screen's.

SMILES	MT1-MMP act inh	MT1-MMP act inh RFP	Rce1 inh	HIV Env fusion	CSC inhib	PABP FP inh	UUG fidelity	eIF4H FP inh
COC(=O)Nc1c(C)n(C)n(-c2ccccc2)c1=O	-1	3	i	-1	0	-2	-7	-2
CSCCC(N=C1NS(=O)(=O)c2ccccc21)C(=O)N1CCCC(C(N)=O)C1 (stereo not drawn)	-5	-3	i	·	-10	·	-15	·
Cc1ccc(C(=O)NNC2=Nc3cccc4cccc2c34)cc1	-12	-8	i	-16	14	6	-22	6
Cc1ccc(C(=O)COC(=O)CSc2cccc3cccnc23)c(C)c1	5	0	·	-37	-5	·	-18	·
COc1ccc2nc(N3CCCC(C(=O)NCCCN4C(C)CCCC4C)C3)sc2c1 (stereo not drawn)	3	5	i	5	13	2	-14	-21
Cc1cccc(SCc2noc(C(=O)NC(C)C)c2C(=O)O)c1	1	6	i	4	1	6	-18	6
O=C(NCCc1ccccc1)c1cccc(NC(=O)c2ccccc2)c1	2	-2	·	-28	·	·	-11	·
O=c1[nH]c(=O)n(-c2cc(Br)c(O)c(Br)c2)cc1Br	3	4	i	-9	-16	1	-16	-11
O=c1ccc2cc(S(=O)(=O)N3CCN(c4ccccc4)CC3)ccc2o1	5	2	i	·	2	-2	-11	-1
CC1Nc2nc(N(C)C)[nH]c(=O)c2NC1C (stereo not drawn)	-1	5	·	-4	10	9	·	31
Cc1cccc(-c2nnc3sc(-c4ccccc4C)nn23)c1	0	-15	i	29	·	10	-11	3
COC(=O)c1ccc(Nc2nc(C)cc(C)n2)cc1	0	2	i	·	9	-4	-12	-7
O=S(=O)(c1ccc(=S)[nH]c1)N1CCCC1	4	1	·	-2	-10	·	-16	·
C/C(=N\OC(=O)c1ccc(F)cc1)c1sc(-c2ccccc2)nc1C	-3	2	i	·	-2	-1	-17	1
CCN(CC)C(C(=O)NC1CCCCC1)c1ccc(C)cc1 (stereo not drawn)	0	2	i	1	-3	10	·	0
Cc1cc(C(=O)COC(=O)/C=C/c2cccc(F)c2)c(C)n1C	0	1	i	17	11	-2	-14	-4
COc1ccccc1C(=O)NCC(=O)N/N=C/c1cccc(Cl)c1	1	-2	i	8	-3	3	·	6
O=C(Cn1ncc2c3ccccc3n(Cc3ccccc3)c2c1=O)NCCCN1CCCC1=O	0	-1	i	-2	-22	3	-10	-5
CCCCOc1ccc(N(CC(=O)NCCOC)C(=O)CCC(=O)Nc2ccccn2)cc1	-3	4	i	4	-7	4	-16	-12
Cc1nnc(NC(=O)c2sc3ccccc3c2Cl)s1	4	0	i	-162	8	5	-20	-6
O=C(O)c1cccc(CSc2nnc(-c3ccco3)o2)c1	0	1	i	·	0	6	0	-3
NC1=NS(=O)(=O)NC1c1ccc(Cl)cc1 (stereo not drawn)	12	6	i	-38	16	-4	-9	-2
CC(C)Cn1c(C(C)NC(=O)Cc2ccccc2)nc2ccccc21 (stereo not drawn)	2	3	i	-26	-5	2	-6	-4
Cc1ccc(-n2nc(C)cc2NC(=O)c2ccc(C)s2)cc1	1	-1	i	24	-13	-2	1	1
COc1ccccc1C(=O)C1CCCN(C(=O)C2=CC(=O)CC(C)(C)O2)C1 (stereo not drawn)	-2	1	i	7	-9	2	-1	-5
C=CCn1c(SCc2c(Cl)cccc2Cl)nnc1-c1cccnc1	2	-2	i	33	-17	4	-6	-4
Oc1cccc2ccc(/C=C/c3ccccc3Cl)nc12	-1	-5	i	-128	61	-11	2	11
COc1ccc(S(=O)(=O)N2CCCC2CNC(=O)C(=O)NCc2cccs2)cc1 (stereo not drawn)	-2	-4	i	-4	·	·	-11	·
Cc1ccc(C)c(N2N=C(C(=O)O)CCC2=O)c1	-2	4	i	-1	-10	-13	·	-3
CC(C)Oc1ccc(C(=O)NN2C(=O)NC3(CCCCC3)C2=O)cc1	8	2	·	9	·	·	-13	·
COc1cc([C@@H]2c3cc4c(cc3[C@@H](O[C@@H]3O[C@@H]5CO[C@@H](C)O[C@H]5[C@H](O)[C@H]3O)[C@H]3COC(=O)[C@H]23)OCO4)cc(OC)c1O	-8	-2	i	45	64	·	-13	·
CCC1CCCCN1C(=O)COC(=O)c1cc2ccccc2cc1O (stereo not drawn)	-4	-7	i	·	-9	-12	-15	-8
CC1(C)CC(=O)C=C(Nc2ccc(OCC(F)(F)C(F)F)cc2)C1	-3	-4	i	·	-17	-1	-9	-9
Cn1ncc([N+](=O)[O-])c1C(=O)Nc1nc2ccccc2n1CCN1CCCCC1	12	9	·	·	-15	22	·	1
O=C(Cc1cccc(NC(=O)C2CCCN(C(=O)CCc3ccccc3)C2)c1)Nc1ccc(C(=O)N2CCOCC2)cc1 (stereo not drawn)	-2	-2	·	-8	·	·	6	·
CC(=O)Nc1ccc(NC(=O)c2nc(-c3ccccc3)oc2C)cc1	-2	-3	i	10	6	1	·	-2
CCOC(=O)C1=C(O)C(=O)NC(c2ccccc2)=C(OCC)C1	-2	3	i	·	-5	33	3	8
O=C(O)CC1SC(=O)N(CC(=O)c2ccccc2)C1=O (stereo not drawn)	2	5	i	-17	-16	23	-5	-5
COc1ccc(CNC(=O)C2CCN(S(=O)(=O)c3ccccc3)CC2)cc1	-2	0	i	-38	-5	-4	1	-1
COc1ccc(OC)c(/C=C/C(=O)N2CCCc3ccccc32)c1	-3	-4	i	-10	9	-4	9	7

Compounds listed so far containing two or more sulfur atoms:
SMILES	MT1-MMP act inh	MT1-MMP act inh RFP	Rce1 inh	HIV Env fusion	CSC inhib	PABP FP inh	UUG fidelity	eIF4H FP inh
CSCCC(N=C1NS(=O)(=O)c2ccccc21)C(=O)N1CCCC(C(N)=O)C1 (stereo not drawn)	-5	-3	i	·	-10	·	-15	·
O=S(=O)(c1ccc(=S)[nH]c1)N1CCCC1	4	1	·	-2	-10	·	-16	·
Cc1nnc(NC(=O)c2sc3ccccc3c2Cl)s1	4	0	i	-162	8	5	-20	-6
COc1ccc(S(=O)(=O)N2CCCC2CNC(=O)C(=O)NCc2cccs2)cc1 (stereo not drawn)	-2	-4	i	-4	·	·	-11	·

Additional entries:
SMILES	MT1-MMP act inh	MT1-MMP act inh RFP	Rce1 inh	HIV Env fusion	CSC inhib	PABP FP inh	UUG fidelity	eIF4H FP inh
Cc1cnc(C(=O)OCC(=O)c2c[nH]c3ccccc23)cn1	0	5	·	0	-2	·	-15	·
CCOc1cc2[nH]c(=S)n(CCN3CCCCC3C)c(=O)c2cc1OCC (stereo not drawn)	8	-1	i	-20	6	-3	-8	-8
CCOc1ccccc1C(=O)N[C@H](C(=O)NCc1ccccc1)C(C)C	0	1	i	1	-11	2	·	1
COc1ccc(N2CCN(C3CCCN(Cc4cccc(C)c4)C3)CC2)cc1 (stereo not drawn)	1	2	i	-6	3	2	-10	-10
Cc1ccc(C)c(OCc2cc(C(=O)N3C[C@@H](C)O[C@@H](C)C3)no2)c1	6	4	i	-62	-9	0	7	2
CCOC(=O)c1cccc(NC(=O)c2ccc3c(c2)C(=O)N(CC2CCCO2)C3=O)c1 (stereo not drawn)	4	0	i	31	2	-7	3	6
COC(=O)c1ccc2ccn(CC(=O)NC(C)C)c2c1	-4	0	i	·	0	24	-3	-10
COCCNC(=O)Nc1ccc2nc(C)sc2c1	1	5	i	-7	3	-10	9	-4
Cc1cc(NC(=O)c2cc(-c3ccc(Br)cc3)on2)no1	0	2	i	13	-1	-24	-11	7
Cc1onc(-c2ccccc2Cl)c1C(N)=O	6	5	i	·	3	4	-9	-15
N/C(=N\c1nc2ccccc2o1)NC(=O)c1ccccc1F	-4	-2	i	·	50	3	-16	4
COc1ccc(CNC(=O)COC(=O)c2ccc(S(=O)(=O)N3CCOCC3)cc2)cc1	1	3	·	0	-17	·	3	·
Cc1ccc(OCCCC(=O)NC2CCCCC2)cc1	0	1	i	-5	4	0	-20	7
CC/C(=N\OC(=O)c1ccc(OC(C)C)cc1)c1ccc(C)cc1	-2	4	i	·	·	-6	-17	-9
O=C(NCCCCCCNC(=O)OCc1ccccc1)OCc1ccccc1	-5	-1	·	-91	·	·	-8	·
CN(C)c1nc(N(C)C)nc(N(C)C)n1	3	5	i	12	-11	25	-5	-1
CCOc1ccc(N/C=C/C(=O)c2ccc(OC)cc2)cc1	0	-2	i	-32	-5	13	-13	2
Cc1c(CN2CCC(C(=O)Nc3ccc(Oc4ccccc4)nc3)CC2)cnn1C	2	2	i	-6	-16	3	-14	-9
Cc1ccc2[nH]c3ccccc3c(=O)c2c1	7	-7	i	-26	-9	-17	-15	-5
Cc1sc2ncn(CC(=O)N3CCCCC3)c(=O)c2c1S(=O)(=O)N1CCC(C)CC1	0	0	i	17	-19	2	-9	2
Cc1cc(C)n(S(=O)(=O)Cc2ccccc2)n1	-1	9	i	·	-2	-8	1	-9
CCN(CC)S(=O)(=O)c1ccc(N2CCN(S(=O)(=O)c3ccccc3C#N)CC2)nc1	1	-3	i	·	48	8	3	12
O=C(N/C(=C/c1ccc(F)cc1)C(=O)N1CCOCC1)c1ccco1	3	5	·	-14	·	·	1	·
CCOC(=O)C1(C)NC(c2ccco2)C2C(=O)N(C)C(=O)C21 (stereo not drawn)	-1	-1	i	6	-1	6	·	4
Cc1ccc(NC(=O)OCCNC(=O)c2ccncc2)cc1	2	3	i	1	-9	-16	·	-2
O=C(Cn1c(=O)n(-c2ccc(F)cc2)c(=O)c2sccc21)c1ccccc1	4	3	i	·	-2	8	·	0
COCCCNC(=O)c1ccc(CSCc2ccc(C)cc2)o1	1	-4	i	15	11	-2	-6	6
CCC(=O)N1CCc2cc(S(=O)(=O)NC(Cc3ccccc3)C(=O)NC3CCCCC3C)ccc21 (stereo not drawn)	6	0	i	·	-2	4	-17	2
Cc1c(C(=O)Nc2nccs2)oc2c(Cl)cccc12	0	-1	i	-81	9	·	·	·
Cc1cnc(C(=O)N2CCCC(C(=O)c3ccc(C(C)(C)C)cc3)C2)cn1 (stereo not drawn)	-3	-7	i	19	32	-4	·	-7
CCOC(=O)c1sc(=S)n(Cc2ccccc2)c1C	-2	0	i	-6	-1	1	·	-5
Cn1c(Nc2ccc(Cl)cc2F)nc2cc(-c3ccccc3)sc2c1=O	-1	9	·	1	·	·	-17	·
CCOc1cc(C(=O)OCC(=O)Nc2ccc(Cl)cn2)ccc1OCC(=O)N1CCOCC1	-3	1	i	-6	5	-6	·	-4
CCOC1=CC(=O)N(Cc2ccccc2)C1	-1	2	i	7	-5	·	·	·
Cn1c(C(=O)NCc2ccccc2)cc2oc3ccccc3c21	-1	0	i	-230	38	4	-19	-2
Cc1ccccc1-c1nc(CN2CCC(C(=O)NCCCN3CC(C)CC(C)C3)CC2)c(C)o1 (stereo not drawn)	8	-7	i	-78	2	0	21	12
COc1ccc([C@H]2C[C@@H](n3cc(COC(=O)c4ccccc4)nn3)[C@H](O)CN2C(=O)C2CCCCC2)cc1	2	-3	·	-24	·	·	-1	·
COC(=O)C1=C(C)N=C2SCCC(=O)N2C1c1cc(Br)ccc1OC (stereo not drawn)	2	2	i	·	-13	3	-8	6
COc1ccc([C@H]2CC(=O)C=C(c3ccc(OC)cc3OC)C2)cc1	7	-5	·	12	71	·	-15	·
O=C(COC(=O)c1cc[n+]([O-])cc1)Nc1ccc([N+](=O)[O-])cc1Cl	0	-2	i	2	-17	9	·	2

Assay outcomes (PubChem BioAssay)
